Vaccinia pol inh: vaccinia E9 polymerase processive synthesis inhibition | in vitro processive DNA synthesis, absorbance read-out; hits give low values; some inactives read as strong as hits | normalized absorbance, % (test concentration not listed) | 46,000 compounds, 0.94% hits;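 active = replicate mean up to 90% and picked by the depositor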;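 also: 100% = median of the test wells of a plate; 100 nL library stock went into each well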
* marks the source's active call; other numbers are inactive results.

SMILES	Vaccinia pol inh
COc1ccc(C(=O)/C=C/Nc2ccc(C(F)(F)F)cc2)cc1	99.8
CCC(C(=O)NCc1ccccc1)n1c2ccccc2c2cn[nH]c(=O)c21 (stereo not given)	100.1
COc1ccc(N2C(=O)[n+]3ccccc3C2C(=O)Nc2c(C)cccc2C)cc1 (stereo not given)	102.4
O=C1Nc2cc(C(=O)NCc3ccccc3)ccc2S/C1=C\c1ccccc1	107.3
Cc1ccsc1C(=O)OCC(=O)N(C)C1CCCCC1	97.8
COc1cccc(Cn2c(=O)c3ccccc3n3nc(C)cc23)c1	104.9
O=C(Nc1ccc(Cl)cn1)c1cccs1	100.4
O=C(COc1ccccc1)Nc1nnc(SCc2cccc(F)c2)s1	99.1
Cn1c(-c2cc3ccc(O)c(CN4CCCC4)c3oc2=O)nc2ccccc21	100.0
Cc1ccc(-c2csc(NC3OC(=O)c4ccccc43)n2)cc1C (stereo not given)	98.9
CN1C2CCC1CC(NS(=O)(=O)c1cc(Cl)c(Cl)cc1Cl)C2 (stereo not given)	107.3
O=C(CSc1ncn[nH]1)NC12CC3CC(CC(C3)C1)C2	100.4
COc1ccc(-c2nc3ccccc3n2CCc2ccccc2)cc1OC	102.8
Cc1ccc(N(C(=O)c2ccncc2)C2C=CS(=O)(=O)C2)cc1 (stereo not given)	102.6
CC1(CN)CCCC1	97.8
Cc1cc(Br)ccc1OCCCN1CCC(C)CC1	99.5
CNS(=O)(=O)c1ccc2ccccc2c1	98.4
Cc1cccc(N2CCN(c3nc4ccccc4c(=O)n3Cc3ccccc3)CC2C)c1 (stereo not given)	104.7
O=c1onc(-c2cccs2)n1Cc1ccc(F)cc1Cl	100.9
O=C1c2ccccc2NC(c2ccc3cccnc3c2)N1c1cccc(C(F)(F)F)c1 (stereo not given)	100.3
Cc1c(NC(=O)CSc2ccccn2)c(=O)n(-c2ccccc2)n1C	106.5
CCc1ccc(N=C(N)N=C(N)N)cc1	102.0
CCCCC(=O)c1ccc(C)[nH]c1=S	100.4
Cc1cc(C)nc(SC(C)CN(C)C)n1 (stereo not given)	97.0
O=C1c2cnccc2CN1Cc1ccccc1	105.2
COc1ccc(-n2c(-c3ccc(Br)cc3)nc3cc4c(cc32)OCO4)cc1	99.6
CC(=O)Nc1sc2c(c1SC#N)CCCC2	100.4
C=CCC1c2cccc(C(=O)O)c2C(=O)N1c1ccc(F)cc1 (stereo not given)	99.9
COc1cc(C=Nc2ccc(N=Cc3ccc(OC(C)=O)c(OC)c3)cc2)ccc1OC(C)=O	99.9
CC(=O)N(C(C)=O)c1nccc(-c2c(-c3ccccc3)noc2C)n1	96.9
CC1CCCCN1S(=O)(=O)c1cc(Cl)ccc1Cl (stereo not given)	105.5
O=C(COc1ccc(Cl)cc1)Nc1c(-c2ccc(F)cc2)nc2ccccn12	98.7
CCOC(=O)c1cnc2ccccc2c1Cl	99.7
CN(C)c1ccc(C2N=C(c3ccccc3)NO2)cc1 (stereo not given)	107.9
CC(NC(=O)c1ccco1)C(c1cccs1)N1CCOCC1 (stereo not given)	100.6
Cc1ccc(S(=O)(=O)NC(=NCc2ccc(Cl)cc2)Nc2nc(C)cc(C)n2)cc1	99.8
Cc1ccc(N2CS(=O)/C(=C/Nc3ccc(Cl)cc3)C2=O)cc1 (stereo not given)	85.6
COc1cc(N=C(C)c2c(C)[nH]n(-c3nc4ccccc4s3)c2=O)cc(OC)c1	100.2
CS(=O)(=O)/N=C(\NC#N)c1ccccc1	100.3
Cc1cccn2cc(CCNS(=O)(=O)c3ccc(Oc4ccccc4)cc3)nc12	93.4
Cc1cc(C)c2c(N)c(C(=O)c3cccs3)sc2n1	100.8
CNC1CCCc2c1n(C)c1ccc(Cl)cc21 (stereo not given)	80.6
CCn1cnc2cc(NCc3ccccc3OC)ccc21	102.1
CCCc1cc(=O)oc2c(CN3CCN(C)CC3)c(O)ccc12	99.6
C=CCn1cnc2ccc(Br)cc2c1=O	100.5
O=C(Cn1cnnc1)NCc1ccc(Cl)cc1	110.5
CC(C)[C@@H]1CC[C@@H](C)C[C@H]1O	97.3
O=C(c1ccc(F)cc1)C1CCN(C(=O)c2ccc(-c3cccs3)s2)CC1	119.8
COc1ccccc1CNC(=O)Nc1noc2c1COc1ccccc1-2	94.8
COC(=O)c1cc(-c2ccc(/C=C3\C(=O)NC(=O)C(C#N)=C3C)o2)ccc1Cl	99.2

Later entries:
SMILES	Vaccinia pol inh
Cc1cc2cc(CNC(=S)Nc3ccccc3)ccc2n1C	97.0
Cn1c(/C(C#N)=C2/CCCCCN2)nc2ccccc21	90.6
Cc1c(C(=O)O)oc2ccc(S(=O)(=O)NCCc3ccccc3)cc12	104.6
COc1ccc(-c2cc3cc(OC)c(OC)cc3c(Cc3ccccc3)n2)cc1	99.9
CCCc1nc2ccccc2n1C(=O)CCC(=O)O	99.3
CCNC(=O)Oc1cccnc1I	104.4
C(=NCc1ccccc1)c1cn(-c2ccccc2)nc1-c1cccnc1	98.2
Cc1nccn1CC1CCc2c(c3ccccc3n2C)C1=O (stereo not given)	93.3
CCC(Oc1ccccc1)C(=O)Nc1sc2c(c1C(N)=O)CCCC2 (stereo not given)	100.1
Cc1cc(Nc2ccc(O)cc2)c2ccccc2n1	84.1
CCc1cc2c(=O)c(-c3ccc4c(c3)OCO4)coc2cc1O	82.1*
CC(=O)Nc1ccc(N/C=C(/C#N)c2nc(-c3ccc(Cl)cc3)cs2)cc1	96.7
FC(F)(F)c1cc(-c2ccccc2)nc(NCCc2ccccc2)n1	99.0
Cc1ccc2c(c1)-c1onc(C(=O)NC3CCCc4ccccc43)c1CO2 (stereo not given)	100.0
CCOC(=O)c1cnc(Sc2ccc(F)c(Cl)c2)nc1C(F)(F)F	101.2
Cc1nc2c(nc(C)n2-c2ccccc2)s1	90.5
Cc1nn(C)c2c1S(=O)(=O)N=C(SCc1c(F)cccc1Cl)S2	93.2
CC(=O)OC/C=C(C)/C=C/C=C(C)/C=C/C1=C(C)CCCC1(C)C	100.3
c1ccc(N2CCN(c3ccccn3)CC2)nc1	100.2
Cc1ccc(C2CC(=O)n3nc(N)nc3N2)cc1 (stereo not given)	98.7
Cc1ccc(CSc2nc3ccccc3s2)cc1	99.2
Cc1ccc(NC(=O)CSc2nc3c(c(=O)n2Cc2ccccc2)SCC3)cc1	98.5
O=C(COc1ccccc1)n1cc(Br)cn1	100.1
COC(=O)c1cccc(N2Cc3ccccc3C2=N)c1	104.8
CC(C)C(=O)Oc1ccc2c(c1)oc(=O)c1ccccc12	94.7
CC(=O)N/C(=C\c1ccccc1)C(=O)Nc1ccc(O)cc1	102.7
CCN1CCN(CC(O)COCc2ccccc2)CC1 (stereo not given)	106.9
CN(C)c1nc(F)c(F)c(S(=O)(=O)c2ccccc2)c1F	100.3
O=C(CCCN1C(=O)/C(=C/C=C/c2ccccc2)SC1=S)Nc1cccc(F)c1	100.2
O=c1oc2cc(OCc3ccccc3)ccc2cc1-c1ccccn1	100.0
O=C(C(Cc1ccccc1Cl)C(=O)N1CCc2ccccc21)N1CCc2ccccc21	81.9
CCOC(=O)c1cnc2c(C#N)c(C)nn2c1C	100.1
COc1cc2c(=O)oc(-c3c(-c4c(F)cccc4Cl)noc3C)nc2c(OC)c1OC	103.1
CC(C)NC(=O)c1c(Cl)nc2sccn12	84.9
N#Cc1ccccc1C[N+]1=C(N)c2ccccc2C1	93.7
O=C(CSc1c[nH]c2ccccc12)N1CCCCC1	100.8
COc1cc(C#N)ccc1OCc1nc(-c2ccc(Cl)cc2)no1	107.1
O=C1CC(c2cccc(O)c2)Oc2ccccc21 (stereo not given)	102.6
Cc1ccc2cc(CCNC(=O)CCc3ccccc3)c(=O)[nH]c2c1C	100.7
Cc1ccc(-c2n[nH]c3c2C(c2ccccc2)NC3=O)cc1 (stereo not given)	98.5

Ordered by count of non-hydrogen atoms (smallest number first): 10 of the compounds above.
SMILES	Vaccinia pol inh
CC(C)NC(=O)c1c(Cl)nc2sccn12	84.9
CCOC(=O)c1cnc2c(C#N)c(C)nn2c1C	100.1
O=C(CSc1c[nH]c2ccccc12)N1CCCCC1	100.8
CN(C)c1nc(F)c(F)c(S(=O)(=O)c2ccccc2)c1F	100.3
Cc1ccc(-c2n[nH]c3c2C(c2ccccc2)NC3=O)cc1 (stereo not given)	98.5
COc1cc(C#N)ccc1OCc1nc(-c2ccc(Cl)cc2)no1	107.1
O=c1oc2cc(OCc3ccccc3)ccc2cc1-c1ccccn1	100.0
Cc1ccc2cc(CCNC(=O)CCc3ccccc3)c(=O)[nH]c2c1C	100.7
O=C(CCCN1C(=O)/C(=C/C=C/c2ccccc2)SC1=S)Nc1cccc(F)c1	100.2
COc1cc2c(=O)oc(-c3c(-c4c(F)cccc4Cl)noc3C)nc2c(OC)c1OC	103.1

New compounds follow:
SMILES	Vaccinia pol inh
O=C(c1ccc(Cl)cc1)c1cnc2n1CCC2	98.6
COc1ccc(Cc2nc3c4cnn(-c5c(F)c(F)cc(F)c5F)c4ncn3n2)cc1OC	86.7
O=c1cc[nH]n1-c1cccc(Cl)n1	82.7
COc1ccc(/C=C2/N=C3SC(C)C(=O)N3C2=O)cc1 (stereo not given)	107.7
O=S(=O)(c1cccc2cccnc12)N1CCc2ccccc2C1	100.6
FC(F)(F)c1cccc2c1[nH]c1nc3ccccc3nc12	102.8
CN(C(=O)c1ccccc1C(=O)N(C)C1CCS(=O)(=O)C1)C1CCS(=O)(=O)C1 (stereo not given)	108.8
CCc1nnc(SC(CC)C(=O)NCc2ccc(C)cc2)c2cc3sccc3n12 (stereo not given)	96.0
Cc1ccc(-c2ccc(/C=C3/SC(=S)N(C)C3=O)o2)cc1Cl	100.0
COc1cccc(NC(=O)N2CCN(C3c4ccccc4-c4ccccc43)CC2)c1	94.1
CC(=O)NC1(C(=O)NC2CCCC2)CCCCC1	101.7
CCn1ncc(C2=NOC(C(=O)N3CCC(C(N)=O)CC3)C2)c1C (stereo not given)	100.5
O=C(COC(=O)c1ccccc1C(=O)c1ccccc1)NC1CCCCC1	105.7
Cc1cccc(N2CCN(C(=O)CN3C(=O)CCSc4ccccc43)CC2C)c1 (stereo not given)	106.9
COc1cc(C)cc2oc(=O)cc(-c3ccccc3)c12	96.7
CN(C)CCNC(=O)c1cc2c(s1)-c1ccc(Cl)cc1SC2	54.8*
Cc1cc2oc(=O)c3c(c2c(O)c1CN1CCCCC1)CCCC3	99.5
CCCn1c(=N)n(CC(O)c2ccccc2)c2ccccc21 (stereo not given)	99.9
CCN1C(=O)/C(=C/c2cn(CCC#N)nc2-c2ccc(F)cc2)SC1=S	100.9
Cc1ccc(CNCc2ccccc2)o1	97.1

The closing four compounds of the section before are carried over, then new ones follow.
SMILES	Vaccinia pol inh
Cc1cc2oc(=O)c3c(c2c(O)c1CN1CCCCC1)CCCC3	99.5
CCCn1c(=N)n(CC(O)c2ccccc2)c2ccccc21 (stereo not given)	99.9
CCN1C(=O)/C(=C/c2cn(CCC#N)nc2-c2ccc(F)cc2)SC1=S	100.9
Cc1ccc(CNCc2ccccc2)o1	97.1
COc1ccc(S(=O)(=O)N(C)CC(=O)NCc2ccccc2)cc1OC	99.9
O=S(=O)(NC(=S)Nc1ccc(Cl)c(Cl)c1)c1ccccc1	90.8
O=C(CSc1nccc(-c2cccs2)n1)Nc1ccccc1	100.6
CC(=O)Nc1nnc(SCC(=O)N2CCc3ccccc32)s1	93.0
CC(=O)Nc1ccc(-n2cccc2)cc1	103.1
COc1ccc(S(=O)(=O)N2CCc3ccccc3C2)cc1	101.0
O=c1oc2ccccc2n1CCOc1cccc2ccccc12	105.7
NC(=O)CN1C(=O)CCSc2ccccc21	101.6
CCN(CCS(=O)(=O)c1ccc(C)cc1)C(=O)c1ccc(-c2cc(C(F)(F)F)nn2C)s1	93.1
O=C1CCCC(=NCc2ccco2)C1	98.8
O=C(Cn1c2ccccc2c2cn[nH]c(=O)c21)NCc1cccnc1	92.9
CN1/C(=C/C(=O)CC(N)=O)C(C)(C)c2ccccc21	93.8
CC(C)OC(=O)COc1ccc2c(c1)OC1(CC2c2ccccc2)CC(C)(C)NC(=O)N1 (stereo not given)	100.1
CCN1CCN(C(=O)/C=C/c2ccc(OC)c(OC)c2)CC1	102.2
CC(O)c1nc2ccccc2n1Cc1cccc2ccccc12 (stereo not given)	100.7
O=C(CCn1c(=O)oc2ccccc21)Nc1nccs1	97.9
COc1ccc(C2=Nc3ccccc3N=C(c3ccc4ccccc4c3O)C2)cc1	99.5
CN(C)/C=N/c1c(-c2nc(-c3ccc(Cl)cc3)cs2)cnn1C	99.5
NCC(O)COc1ccc2c(c1)OCO2 (stereo not given)	91.7
N#C/C(=C\Nc1ccc(C(N)=O)cc1)c1nc(-c2ccccc2)cs1	100.5
CC(C)c1ccc(NC(=O)c2ccc3snnc3c2)cc1	98.5
N#Cc1ccc(NC(=O)Nc2ccccc2)cc1	104.2
Cc1ccc(NC(=O)C2CC(=O)N(C(C)C)C2)cc1 (stereo not given)	96.0
CCCc1cnc(N2CCN(S(C)(=O)=O)CC2)nc1	100.5
Cc1oc2ccccc2c1-c1csc(-c2ccccc2)n1	103.2
CCOC(=O)CC1=NC(=O)CS1	88.9
O=C(O)C1CC(=O)N(CCc2ccccc2)C1 (stereo not given)	104.5
CC(Oc1ccccc1)c1nc2ccccc2n1CCOc1ccccc1 (stereo not given)	107.3
Cc1ccc(C(=O)C(C)OC(=O)c2cc3ccccc3oc2=O)cc1 (stereo not given)	100.9
Cc1ccc(C(=O)Cn2c(=N)n(C)c3ccccc32)cc1	100.2
COC(=O)c1ccc(OCc2ccc(Cl)c(Cl)c2)cc1	96.6
O=C(NCc1noc2ccccc12)Nc1ccc2c(c1)OCCO2	105.9
CCc1ccc(NC(=S)Nc2ccccc2C(C)C)cc1	95.3
O=C(O)CC(CC(=O)Nc1cc(C(F)(F)F)cc(C(F)(F)F)c1)c1ccc(Cl)cc1Cl (stereo not given)	93.6
O=C(Nc1nnc(N2CCCCC2)s1)NC12CC3CC(CC(C3)C1)C2	108.6
CCC1CCCCN1C(=O)C1=CC(c2ccc(OC)cc2)=NS(=O)(=O)N1C (stereo not given)	87.4
O=C(c1ccccc1)c1ccccc1Br	80.2
Cc1ccc(C(=O)n2c(O)c(C3=NCCCCC3)c3ccccc32)cc1	82.5
CC(=O)N1[C@@H](C2C(=O)NN=C2C)C[C@H](C)N1c1ccccc1 (stereo not given in full)	100.2
COC(=O)c1sc(C(F)(F)F)c(-c2ccccc2)c1S(=O)(=O)N1CCOCC1	100.2

Screening results from PubChem BioAssay.

Only part of the results is shown; the hit share may differ from the screen's.
